Compound activity from PubChem BioAssay.
MgrA-DNA mod: S. aureus MgrA activity modulators, primary screen, biochemical, S. aureus Newman, fluorescence polarization; inhibition, %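 (about 10 µg/mL by stock and volumes)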; 84,000 compounds, 0.13% hits; MgrA-DNA binding; AID 602314, 2012;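 active = above 50% in either of two replicates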;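 also: 0% = protein plus DNA without compound and 100% = DNA alone without protein; higher means less MgrA bound to DNA so lower polarization; one replicate is shown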
Sa helicase inh: inhibitors of S. aureus replicative helicase, primary screen, biochemical, fluorescence unwinding readout; AID 485395, 2010; replicative DNA helicase (DnaC/DnaB), Staphylococcus aureus; 120,000 compounds, 0.05% hits; inhibition, %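 (tested at about 80 µM)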; purified S. aureus helicase, fluorescence unwinding assay; about half of the hits fall short of the stated cut;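 active = both duplicates at 50% or more, or one of them with a favoured structure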;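 also: 0% = mean of negative control wells and 100% = mean of positive control wells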
An asterisk follows results filed as active; x = not tested or not shown; & = joins results of further samples.

MgrA-DNA mod | Sa helicase inh | SMILES
-0.6 | 1 | CC(C)c1ccc(S(=O)(=O)C2C(=O)N(C)C3(C)CC2c2ccccc2O3)cc1 (centres undefined)
x | -6 | Cc1ccccc1OCCN1CCNC1=S
6.6 | -2 | COc1ccccc1N=C(NN)c1ccc2ccccc2n1
x | 7 | CC1CC(=S)Nc2ccccc2S1 (centres undefined)
-1.1 | 0 | CC(=O)Nc1cc(-n2cnnn2)ccc1C
x | 0 | O=C(CSc1nncn1-c1ccccc1)c1ccccc1
x | -1 | N#Cc1c(-c2ccccc2)nc(SCC(=O)OC2CCCC2)[nH]c1=O
-1.1 | x | CCOC(=O)c1c(C=O)oc2c(C)cc(OC(=O)c3cc(OC)c(OC)c(OC)c3)c(Br)c12
-1.9 | 10 | O=C(Nc1cccc(Cl)c1)C1=CC(=O)N2CCCN=C2S1
2.4 | 0 | CC(C)c1cc(=O)n2c([nH]c3ccccc32)c1C#N
0.1 | x | CC(=O)c1ccc(Sc2ccccn2)c([N+](=O)[O-])c1
x | -19 | Cc1ccc(N2CCN(C(=O)c3ccc(Br)cc3)CC2)cc1C
x | 12 | Cc1oc(-c2ccccc2)[n+]([O-])c1C
1.1 | 8 | Cc1nnc(NC(=O)CSc2nnc(COc3ccc4c(c3)CCCC4)n2C)s1
x | 11 | CN1C(=O)c2ccc(NC(=O)c3ccc4ncsc4c3)cc2C1=O
-0.3 | 10 | C=CCOc1ccc(/C=C2\Oc3ccc(C(=O)OC)cc3C2=O)cc1
x | 1 | N#Cc1ccc(NCC(=O)Nc2ccc(N3CCOCC3)cc2)cc1
3.8 | 13 | CCOC(=O)c1ccc2ncc3c(-c4ccccc4)nn(-c4ccccc4)c3c2c1
x | 20 | O=C(CN1c2ccccc2S(=O)(=O)c2ccccc21)N1CCCCC1
x | -3 | Cc1[nH]c(C)c(S(=O)(=O)NC2CCCCCC2)c1C(=O)N1CCCC1
x | -14 | COc1ccccc1N1CC(C(=O)OC(C)C(=O)N2CCCc3ccccc32)CC1=O (centres undefined)
x | 3 | Cc1ccc(CNC(=O)COC(=O)c2ccccc2NCCO)cc1
0.1 | 10 | CCCCN(C)C(=O)c1nc(-c2ccc(C)cc2)n2c1CCCCC2
x | 12 | Cc1ccccc1-n1c(=O)c2ccccc2n2nnnc12
3.6 | -1 | N=c1c(C(N)=S)cnc2ccccn12

The closing four entries of the part before lead into the next.
MgrA-DNA mod | Sa helicase inh | SMILES
x | 3 | Cc1ccc(CNC(=O)COC(=O)c2ccccc2NCCO)cc1
0.1 | 10 | CCCCN(C)C(=O)c1nc(-c2ccc(C)cc2)n2c1CCCCC2
x | 12 | Cc1ccccc1-n1c(=O)c2ccccc2n2nnnc12
3.6 | -1 | N=c1c(C(N)=S)cnc2ccccn12
-2.5 | 23 | CC(NC(=O)c1ccc(C(C)(C)C)cc1)c1ccncc1 (centres undefined)
3.1 | -1 | COCC(C)N1CC(C(=O)Nc2nnc(CCc3ccccc3)s2)CC1=O (centres undefined)
-8.7 | x | O=[N+]([O-])c1ccc2c(c1)S(=O)(=O)C=C2
-0.6 | 7 | CC(=O)OC1OCCOC1OC(C)=O (centres undefined)
x | -17 | Cc1ccc(C(=O)CSc2nccc(=O)[nH]2)cc1
2.6 | 9 | NC(CC(=O)O)c1cccc(O)c1 (centres undefined)
-1.8 | x | COc1cccc(/C=N/N=C/c2cccc(OC)c2O)c1O
x | 1 | CCCn1c(CNC(C)=O)nc2ccccc21
x | 1 | CCOC(CCn1c(SCC(N)=O)nc2c(sc3ccccc32)c1=O)OCC
x | -4 | O=c1oc2ccc(NS(=O)(=O)c3ccccc3)cc2s1
x | 6 | Cc1c(C#N)c(NC(=O)c2ccc(Cl)cc2)n(CC2CC2)c1C
x | 0 | COc1ccc(C(CC(=O)NCc2cccs2)n2cccc2)cc1 (centres undefined)
2.1 | x | COc1cc(C2C3=C(CC(C)(C)CC3=O)OC3=C2C(=O)CC(C)(C)C3)ccc1OCC(=O)O
x | 3 | CC(Oc1ccc(C(=O)c2ccccc2)cc1)C(=O)NN (centres undefined)
3.2 | x | Cc1[nH]c(=O)c(C#N)cc1-c1ccncc1
0.4 | 2 | CCc1nc(C)ccc1O
-3.4 | x | Cc1onc(-c2c(F)cccc2Cl)c1C1=NCCO1
4.3 | x | Cc1csc(NC(=O)COCC(=O)O)c1-c1nc2ccccc2s1
-1.8 | 1 | O=C(NC1CCCCC1)N(Cc1nc2ccccc2c(=O)[nH]1)C1CCCC1
x | 6 | COc1ccc(C2=[N+]([O-])C(C)(C)N(O)C2C)cc1 (centres undefined)
x | 7 | COC(=O)N/N=C1\CC2CCC1(C)C2(C)C (centres undefined)
x | -1 | Cc1ccc(O)c(C(=O)c2coc(=N)c(C(=O)NC(C)C)c2)c1
-2.1 | x | Cc1ccc(S(=O)(=O)NNC(=S)NCCc2ccccc2)cc1
0.4 | -13 | COC(=O)c1cnc2c(C(F)(F)F)cccc2c1OC
1.1 | 2 | O=C(CC12CC3CC(CC(C3)C1)C2)N1CCCC1
x | 9 | Cn1c(=NC(=O)/C=C\c2ccccc2)sc2ccccc21
x | 3 | CC1CC(C)CN(C(=O)c2ccc(N3CC4CC(C3)c3cccc(=O)n3C4)c(NC(=O)c3ccc(F)cc3)c2)C1 (centres undefined)
x | -9 | Cc1ccc(NS(=O)(=O)c2ccc(NC(=O)CCC(=O)O)cc2)cc1C
x | 20 | CCn1cc(SCC(=O)NCc2ccc3c(c2)OCO3)c2ccccc21
x | -6 | O=c1c(-c2ccc(Br)cc2)coc2cc(O)ccc12
0.3 | 9 | COc1ccc(-c2cc(C(F)(F)F)c(C#N)c(SCCCn3c(=O)[nH]c4ccccc43)n2)cc1
5.8 | 8 | O=C(COc1ccc2c(c1)CCC2)N1CCC2(CC1)OCCO2
-1.9 | -4 | O=C(CCN1CCCCC1)N1N=C(c2ccc(Cl)cc2)CC1c1ccco1 (centres undefined)
4.4 | 4 | CC(=O)n1c2ccccc2c2nc(-c3ccncc3)sc21
x | -3 | CCC(=O)Nc1nnc(-c2cccc(OC)c2)o1
x | -9 | CC1(C)OC(=O)C(=C2SCCCS2)C(=O)O1
x | 6 | CCSc1nnc(SCC(=O)c2cc(C)n(C)c2C)s1
1.6 | 3 | NC(=O)CSc1nc2ccccc2n1S(=O)(=O)c1ccccc1
-1.3 | x | CN(C)c1ccc(-c2nc3ccccc3c(=O)[nH]2)c(Cl)c1
0.9 | x | Cc1ccc(-c2nc3sc(C)c(C)c3c(=O)o2)cc1
x | 12 | COc1cc(C(=O)OCC(=O)c2cc3c4c(c2)CC(=O)N4CCC3)ccc1OC(F)F
-1.9 | 3 | NC(=O)CSc1nnc2c(n1)CCCC2
x | -5 | O=C(Nc1ccc(Oc2ccc(NC(=O)c3cnccn3)cc2)cc1)c1cnccn1
x | 16 | O=C(Nc1nsc(-c2ccccc2)n1)c1ccc2ncsc2c1
1.9 | -8 | NC(=O)c1ccsc1NC(=O)c1cccs1
19 | -12 | O=C1CCCC2=C1Sc1ccccc1N2
x | -20 | COc1ccc(CN2CN=C(Nc3nc4ccccc4o3)NC2)cc1
x | 5 | Cc1noc(C)c1COc1ccc(CC(=O)Nc2ccc3c(c2)OCO3)cc1
x | -22 | COc1ccc(-c2nnc(SCC(=O)OC(C)C)o2)cc1
x | -17 | Cc1nonc1NC(=O)C(C)Oc1ccc(F)cc1 (centres undefined)

Following part:
MgrA-DNA mod | Sa helicase inh | SMILES
x | 4 | CC(=O)N(C)c1ccc(NC(=O)/C=C/c2ccco2)cc1
0.7 | x | O=C1NC(=O)C(Cc2ccccc2)S1 (centres undefined)
x | -12 | COCCn1c(SCc2csc(-c3cc(Br)ccc3OC)n2)nc2ccccc21
x | -6 | O=C(CCCOc1ccccc1)OCc1cc(=O)oc2cc(O)ccc12
8.3 | -4 | Cn1c(N)nc(O)c1/C=C1/C=Nc2ccccc21
22 | 5 | Oc1ccc2ccccc2c1C=Nc1cccn2cc(-c3ccccc3)nc12
x | 11 | CC(CNS(=O)(=O)c1ccccc1)Sc1ncccn1 (centres undefined)
-1.1 | 1 | O=C(c1ccc(Cl)nc1)N1CCC(Cc2ccccc2)CC1
-2.0 | x | N#Cc1ccc(-c2nc3ccccc3c(=O)[nH]2)cc1
0.1 | 4 | O=C(NCC1CCCO1)c1cc(-c2cccs2)nc2ccccc12 (centres undefined)
-0.5 | x | Cc1oc(C(C)(C)C)cc1-c1cc(N)n(-c2ccc(S(N)(=O)=O)cc2)n1
x | -8 | CCC(C)SCc1nc2ccccc2[nH]1 (centres undefined)
-0.8 | x | CC(C)(C)c1cc2ncnc(N3CCN(c4ncnc5cc(C(C)(C)C)sc45)CC3)c2s1
x | 5 | N=c1c2c3c(sc2ncn1CCCn1ccnc1)CCCC3
-2.4 | 12 | COc1cccc(NC(=O)c2sc3ncnc(N4CCc5ccccc5C4)c3c2C)c1
1.6 | x | CCOCCOC(=O)C1=C(C)NC2=C(C(=O)CCC2)C1c1cc(Br)c(O)c(OCC)c1 (centres undefined)
x | 6 | CN(C)c1ccc(CN(CC2CCCO2)S(=O)(=O)c2cccs2)cc1 (centres undefined)
x | -1 | Cc1nc(SCc2ccc(C(=O)O)cc2)nc2c1CCCC2
-3.3 | x | O=C(NC1CCN(Cc2ccc(F)cc2)CC1)c1ccccc1
4.3 | x | CCCCN1C(=O)N(c2nnc(C(C)(C)C)s2)C(=O)C1c1ccc(Cl)c(Cl)c1 (centres undefined)
5.2 | 3 | CCOc1ccc(NC(=O)c2cnn(-c3ccccc3)c2NC(=O)c2ccco2)cc1
1.5 | -4 | CC1=NCC(=O)Nc2cc3c(cc21)OCCO3
-0.6 | 6 | CC(C)C(=O)Nc1cccc(-c2nc3ncccc3o2)c1
x | -15 | CC1=Nc2cccc3cccc(c23)N1
-0.7 | 0 | COc1ccccc1C(=O)N(C(C)C)C(C)C
-0.6 | x | CCOC(=O)c1ccc(NC(=O)CN2C(=O)/C(=C\c3ccccc3)SC2=S)cc1
-2.8 | 10 | O=C(Nc1cccc2ccccc12)c1ccc(C(F)(F)F)cc1
2.0 | -14 | Cc1ccc(S(=O)(=O)c2ncsc2Cl)cc1
-3.0 | x | Cc1ccccc1C(=O)Nc1nccs1
x | -11 | O=C(Cn1cnc2ccccc21)Nc1ccccc1
x | -10 | Cc1ccc2cccc(I)c2n1
-4.2 | -11 | COc1cc2ccccc2cc1C(=O)OCC(=O)c1ccc(Cl)cc1
x | -21 | CN(C)C(CNC(=O)Cc1cccc(C(F)(F)F)c1)c1ccco1 (centres undefined)
x | -104 | COc1cc(/C=C2\SC(=S)N(C3CCS(=O)(=O)C3)C2=O)cc(Br)c1O (centres undefined)
0.1 | x | CCOC(=O)c1c(-c2ccccc2)oc2c1cc(OC(=O)c1cccc(OC)c1)c1ccccc12
x | 8 | COc1cccc2c1Oc1ncccc1N(C(=O)CCC(=O)NC1CCCCC1)C2
-1.0 | -3 | C[S+](C)c1c(-c2ccccc2)nc2ccccn12
x | 9 | O=C(Cn1cc2c(n1)CCCCC2)NCCCN1CCCC1=O
-1.1 | 13 | N#CCC(=O)Nc1ccc(F)cc1F
x | 0 | Cc1sc2nc(SCC(=O)NC3CCCCC3)nc(N)c2c1C
x | 41 | Cn1c2c(cc(C#N)c1=O)COC(C)(C)C2
-7.0 | 3 | CCC1(C)NC(C(=O)O)Cc2c1[nH]c1ccccc21 (centres undefined)
x | -6 | CN1/C(=C\C(=O)COC(=O)c2cccc(S(=O)(=O)N3CCOCC3)c2)C(C)(C)c2ccccc21
-1.6 | 12 | CCOc1ccc(NC(=O)CCC(=O)O)cc1
x | 4 | O=C(CSC1=NS(=O)(=O)c2ccccc2N1)N1CCCc2ccccc21
0.9 | 8 | COc1cc2c(C(=O)N3CCN(c4ccccc4)CC3)cn(CC(C)C)c(=O)c2cc1OC
x | -9 | CCOc1ccc(-n2c(-c3ccco3)nc3c(cnn3-c3ccc(C)cc3)c2=O)cc1
x | 15 | CCc1ccccc1NC(=O)C1CCN(c2nn3cc(-c4ccc(C)cc4)nc3s2)CC1
1.9 | -1 | CCCc1[nH]nc2c1C(CCC)C(C#N)=C(N)O2 (centres undefined)
0.9 | 1 | CCOC(=O)c1cnn(-c2ccccc2)c1NC(=O)C(F)(F)F

Three records picked at random from those above:
MgrA-DNA mod | Sa helicase inh | SMILES
x | 0 | Cc1sc2nc(SCC(=O)NC3CCCCC3)nc(N)c2c1C
-1.1 | 13 | N#CCC(=O)Nc1ccc(F)cc1F
x | -11 | O=C(Cn1cnc2ccccc21)Nc1ccccc1

Whole records as entered above. Order of screens: MgrA-DNA mod	Sa helicase inh
CCc1ccccc1NC(=O)C1CCN(c2nn3cc(-c4ccc(C)cc4)nc3s2)CC1 reads x	15
CN(C)C(CNC(=O)Cc1cccc(C(F)(F)F)c1)c1ccco1 (centres undefined) reads x	-21
Cn1c2c(cc(C#N)c1=O)COC(C)(C)C2 reads x	41
COc1cc2c(C(=O)N3CCN(c4ccccc4)CC3)cn(CC(C)C)c(=O)c2cc1OC reads 0.9	8
Cc1sc2nc(SCC(=O)NC3CCCCC3)nc(N)c2c1C reads x	0

(cont.)
MgrA-DNA mod | Sa helicase inh | SMILES
0.5&-0.7 | x | CCCCNC(=O)NS(=O)(=O)c1ccc(C)cc1
x | 0 | CCN1CCN(c2ncc(C(=O)OC)c3ccccc23)CC1
0.8 | 0 | CC1(C)Oc2ccc(C(=O)N3CCCC3)cc2N(CC(=O)N2CCCCC2)C1=O
-0.2 | 4 | O=C(COc1ccc2c3c(c(=O)oc2c1)CCC3)N1CCCC1
x | 17 | CCN1CCc2c(sc(-n3cccc3)c2CNC(=O)Nc2cc(Cl)ccc2C(=O)OC)C1
-0.2 | 11 | O=C(O)Cn1c2ccc(Br)cc2c2nc3ccccc3nc21
-3.0 | x | C=CCN(C(=O)c1ccc(Cl)cc1)c1ccccc1C(=O)NCC(=O)O
x | 4 | Cn1c(=O)c2c(nc3n2CC(C(C)(C)C)=NN3Cc2cccc3ccccc23)n(C)c1=O

These rows are one share of the data (hit frequency here may not be typical).
